Screening results as filed in PubChem.
RN4220 kill: kills Staphylococcus aureus RN4220. inhibition, % (test concentration not listed). actives 0.33% (n = 330,000). S. aureus RN4220 growth, OD600, 16 h;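 active means z-score of -3 or lower and OD600 up to 0.18 on both plates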;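 further: plate controls were untreated cells for no effect and reference antibiotic for full effect; stock transfer was 100 nL into about 80 µL; one replicate is shown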
Mtb hypoxia inh: reduces hypoxia-regulated biosensor signal in M. tuberculosis. fluorescence inhibition, % (no concentration beside the values). actives 0.1% (n = 300,000). M. tuberculosis hypoxia-regulated fluorescent reporter, fluorescence. AID 1159583;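 active means 35 to 45% if threefold the growth effect, above 45% if 1.5-fold the growth effect; inactive means the rest, general growth blockers included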;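 further: wells of about 50 µL received 100 nL stock; 0% = vehicle wells and 100% = reference inhibitor wells; whole bacteria with a GFP reporter of the hypoxia response; strong numbers were not always called active; many hits fall short of the cut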
Bead autofluor: counter-screen for toxin protease inhibitors: compound fluorescence | compound autofluorescence counterscreen, microsphere flow cytometry; hits give high values | fluorescence intensity (concentration not given with the values) | actives 3.1% (n = 360,000) | AID 624483;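 active means at least 3 SD above the mean of all compounds, about 16000 in these data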;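 further: 100 nL of 1 mM stock went into each well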
BJeLR lethal: kills HRASV12-expressing BJeLR cells. BJeLR (HRASV12) viability, CellTiter-Glo ATP luminescence, 48 h; reference of the scale not given here. inhibition, % (no concentration beside the values). actives 0.17% (n = 300,000);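 active means replicate mean above 50%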;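 further: 50 nL library stock added to about 25 µL; numbers are from one replicate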
PrP 5UTR inh: suppresses PrP 5' UTR mRNA reporter expression; actives 0.35% (n = 340,000); cell-based PrP 5' UTR mRNA reporter, plate reader; inhibition, % (concentration not given with the values);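 active means every replicate at 50% or more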;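 further: 0 = median of the neutral control wells; tested in H4 reporter cells; numbers are from one replicate; inactives centre near -14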
ugtP null kill: kills S. aureus RN4220 lacking UgtP; AID 1259309; growth inhibition, % (concentration not given with the values); S. aureus RN4220 ugtP deletion, OD600 growth, 16 h; some inactives read as strong as hits; actives 0.54% (n = 330,000);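 active means z-score under -3 and OD600 up to 0.15 on both plates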;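 further: plate controls were untreated wells for no effect and antibiotic for full effect; wells of about 80 µL received 100 nL stock; the first replicate is given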
Mtb hypoxia inh growth: recorded beside Mtb hypoxia inh, whose call it bears; growth inhibition, %; measured here: M. tuberculosis growth (absorbance);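 0% = vehicle and 100% = reference antibiotic; read after six days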
Numbers without * were called inactive; . = not tested or not shown; & = joins results of further samples.

SMILES	RN4220 kill	Mtb hypoxia inh	Mtb hypoxia inh growth	Bead autofluor	BJeLR lethal	PrP 5UTR inh	ugtP null kill
Cc1ccc(NC(=S)N(CCCN(C)C)Cc2cc3cc4c(cc3[nH]c2=O)OCO4)cc1	5.4	11.8	-3.3	3554	10.1	-11.5	3.7
O=C(NCCCN1CCCC1=O)c1cc2ccccc2o1	6.7	3.8	-5.0	7008	.	-14.8	14.1
CCOC(=O)CSc1n[nH]c(NC(=O)c2ccc(F)cc2)n1	-0.2	-0.6	0.3	9869	-3.4	10.9	-0.9
Cc1cc(C(=O)NN=Cc2ccc[nH]2)no1	6.9	4.9	6.5	.	.	.	8.8
COc1cc(C(=O)NCC(c2cccs2)N2CCOCC2)cc(Br)c1OCc1ccccc1 (configuration not stated)	8.4	-3.8	2.0	2853	.	0.6	11.7
Cc1csc(NC(=O)CCC(=O)N(CC(=O)NC2CCCC2)c2ccccc2)n1	1.4	-5.5	-10.8	3308	-15.8	-3.6	12.6
CC(C)(C)NC(=O)COC(=O)c1cc(Br)ccc1Cl	3.1	17.4	0.0	2259	7.4	-24.9	8.3
Cc1cccc(S(=O)(=O)Nc2nc3ccccc3nc2Nc2ccc3c(c2)OCO3)c1	3.1	-1.9	3.3	9799	-5.9	3.6	12.0
CN(C)CCCNC(=S)NCc1ccc(Cl)cc1	6.6	-1.6	-1.2	10341	-1.6	10.8	15.1
N#Cc1ccc(NCC(=O)Nc2ccc3c(c2)OCCO3)cc1	-2.7	-1.2	11.6	4199	7.7	-40.4	0.7
CCCCOc1ccc(Br)cc1CSC(=N)N	1.6	-12.8	6.7	2610	7.7	-16.5	-15.9
Cc1ccc(C(=O)N/N=C\c2ccc[nH]2)cc1[N+](=O)[O-]	.	.	.	3294	9.1	-27.6	.
O=C(COC(=O)c1ccc(Cl)c(S(=O)(=O)NCc2ccccc2)c1)NCC1CCCO1 (configuration not stated)	3.0	6.8	-5.4	4123	0.6	-26.4	6.2
Cc1cccc(NC(=S)NCc2cccs2)c1	3.8	-7.7	-4.5	1967	-0.3	-9.5	-0.2
Cc1ccc(S(=O)(=O)NC[C@H]2O[C@@H](n3cnc4c(N)ncnc43)[C@H](O)[C@@H]2O)s1	3.5	-1.6	-0.8	3160	.	-10.2	12.4
Cc1nn(-c2ccccc2)c(N2CCCC2)c1C=NNc1ccc(S(N)(=O)=O)cc1[N+](=O)[O-]	5.3	3.7	-2.0	.	.	.	-15.6
CCCCCc1nc2sc3c(c2c(=O)n1N)CCC3	9.6	3.8	3.2	3026	1.5	-25.3	-4.4
OCCCc1nc2ccccc2n1Cc1ccccc1	7.1	-4.8	5.0	4325	9.2	-23.6	14.3
Cc1cc(C)c2cc(C(=O)N3CCN(c4ncccc4C(F)(F)F)CC3)[nH]c2c1	-1.0	-0.1	3.2	3246	-7.2	-1.8	-9.2
CC(c1ccccc1)N1CC(C(=O)Nc2ccc(F)cc2)CC1=O (configuration not stated)	1.9	-1.4	-0.8	5590	.	-2.7	2.2
CCc1ccccc1N(C(=O)Cn1nnc2ccccc21)C(C(=O)NCCOC)c1ccco1 (configuration not stated)	2.2	.	.	3954	-3.1	-27.8	1.2
Cn1c(=O)[nH]c2ncccc21	0.8	-0.7	5.7	3484	3.3	-3.1	-0.4
O=C(NCC1(N2CCCCC2)CCCCC1)C1CC(=O)N(c2ccc3c(c2)OCCO3)C1 (configuration not stated)	6.2	10.1	3.9	4963	3.0	-3.3	5.2
COc1ccc(C(=O)Nc2nncs2)c(OC)c1	8.8	.	.	6274	-10.6	-55.5	4.6
Cc1cc(NC(=O)COn2nnc3ccccc32)no1	-5.9	.	.	2955	-0.6	-20.1	-0.5
Cc1cc(OCC(=O)NC(C)C)cc(C)c1Br	-5.4	6.5	11.5	3084	-4.5	-22.9	-11.1
CC1(c2ccc(OC(F)F)cc2)NC(=O)N(CC(=O)Nc2ccc3c(c2)OCO3)C1=O (configuration not stated)	-0.1	-3.8	3.2	10519	0.8	-7.5	-9.9
COc1ccc2[nH]c(=O)c(CNc3cc(C)ccc3C)cc2c1	3.5	-14.2	3.4	4573	2.9	-14.8	-4.0
COc1ccc(C=C(C#N)c2ccc(OC)cc2)cc1	4.7	12.8	8.4	2976	.	-48.8	1.9
COCCN(CC(=O)Nc1cc(Cl)ccc1-n1cncn1)Cc1nc2ccccc2c(=O)[nH]1	1.3	8.4	9.1	5493	.	.	2.6
CC(=O)c1cccc(OCc2cc(C(=O)NCc3nc(C)c(C)s3)no2)c1	-0.3	-2.4	2.4	5540	-3.5	-42.0	4.0
CCc1cc(C(=O)N2CCCC(CNC(=O)c3ccc(-c4ccccc4)cc3)C2)no1 (configuration not stated)	11.4	6.2	8.9	3461	5.3	2.1	-0.1
Cc1ccc(NC(=O)/C=C\C(=O)NCC(=O)O)cc1	2.2	-2.6	-5.1	2181	-7.0	-6.1	6.5
CCCc1[nH]n(-c2nc3ccccc3s2)c(=O)c1C=NCC1CCCO1 (configuration not stated)	4.6	8.5	-3.1	19952*	-2.7	-2.3	3.1
CN(Cc1ccccc1)C(=O)c1[nH]cnc1C(=O)Nc1nccs1	5.6	-0.4	2.7	3809	.	-18.5	3.2
COc1ccccc1-n1ccnc(SCC(=O)NCCc2ccccc2)c1=O	2.0	-5.0	-13.8	.	3.9	-1.7	2.4
O=C1COc2c1ccc(O)c2O	5.6	12.5	4.3	2970	.	2.7	10.6
Cc1ccc(Cl)cc1NC(=O)COC(=O)C12CC3CC(CC(C3)C1)C2	2.7&6.3	-3.8&15.5	9.3&13.5	2918&11486	7.0&11.6	-10.3&-19.6	-11.1&-5.7
Cc1cc(C(=O)CN2C(=O)CCC2=O)c(C)n1Cc1ccccc1	-1.7	-4.2	-0.6	4578	3.8	4.9	-9.9
Cn1nnnc1SCC(=O)NNC(=O)c1ccc(F)cc1	8.8	16.2	11.3	4254	12.2	-12.7	4.3

Continued, overlapping the part above by six compounds.
SMILES	RN4220 kill	Mtb hypoxia inh	Mtb hypoxia inh growth	Bead autofluor	BJeLR lethal	PrP 5UTR inh	ugtP null kill
CN(Cc1ccccc1)C(=O)c1[nH]cnc1C(=O)Nc1nccs1	5.6	-0.4	2.7	3809	.	-18.5	3.2
COc1ccccc1-n1ccnc(SCC(=O)NCCc2ccccc2)c1=O	2.0	-5.0	-13.8	.	3.9	-1.7	2.4
O=C1COc2c1ccc(O)c2O	5.6	12.5	4.3	2970	.	2.7	10.6
Cc1ccc(Cl)cc1NC(=O)COC(=O)C12CC3CC(CC(C3)C1)C2	2.7&6.3	-3.8&15.5	9.3&13.5	2918&11486	7.0&11.6	-10.3&-19.6	-11.1&-5.7
Cc1cc(C(=O)CN2C(=O)CCC2=O)c(C)n1Cc1ccccc1	-1.7	-4.2	-0.6	4578	3.8	4.9	-9.9
Cn1nnnc1SCC(=O)NNC(=O)c1ccc(F)cc1	8.8	16.2	11.3	4254	12.2	-12.7	4.3
CC1CCN(C(=O)CSc2nnc(-c3cccnc3)o2)CC1	2.3	15.1	3.6	3034	-9.3	-13.0	5.3
CC(C)NC(=O)c1cc(-c2cccs2)nc2ccccc12	7.8	16.2	8.1	3376	-7.8	-20.7	9.8
Cc1ccccc1-n1c(SCC(=O)NCC2CCCO2)nc2c([nH]c3ccccc32)c1=O (configuration not stated)	0.2	-7.5	-3.9	6347	-7.4	-19.2	1.2
Cc1cc(C)cc(NC(=O)CN2C(=O)c3ccccc3C2=O)c1	2.9	4.2	3.7	4109	-11.6	-11.3	11.3
COc1cc(/C(C)=N/NC(=O)c2cccc(S(=O)(=O)N3CCCC3)c2)cc(OC)c1OC	.	.	.	6474	-3.8	-12.1	.
O=C(N/N=C/c1ccc(F)cc1)c1ccc(OCc2ccccc2)cc1	.	.	.	4597	-4.9	-31.6	.
Cc1onc(-c2ccccc2Cl)c1C(=O)Nc1nc2ccc(S(C)(=O)=O)cc2s1	5.3	4.8	1.4	2717	9.5	-11.3	8.7
CCCCC(CC)COC1(c2ccccc2)OC(=O)c2ccccc21 (configuration not stated)	-4.3	5.9	3.7	11893	5.7	.	85.9*
CCCC1C(c2ccco2)NC(c2ccco2)CC1(C)O (configuration not stated)	-2.9	1.1	-3.7	2340	-4.9	5.1	0.8
COc1ccc(-c2nnc(NC(=O)c3ccc(S(=O)(=O)N(C)CC4CCCO4)cc3)o2)c(OC)c1 (configuration not stated)	-6.9	-0.6	0.0	4462	-1.3	-21.6	100.5*
O=C(c1cc(C2CC2)nn1-c1ccccc1)N1CCN(Cc2ccccc2F)CC1	1.2	5.8	3.4	5506	.	-0.4	0.4
CC1CCN(C2=NC(=O)/C(=C/c3cccc(O)c3)S2)CC1	3.6	12.5	9.9	3594	-21.2	-8.5	4.5
CSC1=NCCN1C(=O)c1ccc2c(c1)OCO2	-1.6	.	.	3529	-11.3	-10.6	-1.5
CCn1c(O)c(C=C2N=c3ccccc3=N2)sc1=S	.	.	.	4186	8.1	-14.1	.
CCC(SC1=NCCS1)C(=O)Nc1nnc(-c2ccccc2OC)s1 (configuration not stated)	-5.4	-2.9	6.8	5654	-11.6	-10.6	-1.8
CCOC(=O)c1c(N2CCCCC2)c2ccccc2[nH]c1=O	-0.2	3.2	8.5	2799	2.3	-17.2	-13.2
CCN(CC)c1ccc(C=Nc2cc(C)ccc2C)c(O)c1	-3.9	1.3	1.0	2815	-0.2	6.1	-0.9
CCOc1cccc(=O)c2c(C)n(Cc3ccco3)c(C)c12	1.9	-2.1	10.2	22022*	-1.1	-16.2	-10.6
O=C(c1nc2ccccn2c1CN1CCCC(c2nc3ccccc3o2)C1)N1CCCC1 (configuration not stated)	1.9	14.1	13.3	4550	-1.4	-37.5	4.4
NC(=O)CC1NC(=O)c2cc([N+](=O)[O-])cc(I)c2OCCC(C(N)=O)NC(=O)C2CCCN2C1=O (configuration not stated)	6.5	8.5	3.1	.	.	.	0.4
COCCNc1ccc([N+](=O)[O-])cc1C(=O)Nc1cccc(C)n1	2.4	-1.6	13.8	4450	48.1	-2.4	8.0
Cc1ccc(NC(=O)CCC(=O)N/N=C/c2ccc([N+](=O)[O-])o2)cc1C	.	.	.	3906	-3.5	-2.2	.
COc1ccc(/C=N/NC(=O)CC#N)cc1Oc1nc(Cl)ncc1F	.	.	.	3822	-2.6	-19.7	.

A few values from the entries so far:
N#Cc1ccc(NCC(=O)Nc2ccc3c(c2)OCCO3)cc1 | Mtb hypoxia inh = -1.2
O=C(c1nc2ccccn2c1CN1CCCC(c2nc3ccccc3o2)C1)N1CCCC1 (configuration not stated) | RN4220 kill = 1.9
